Screening results (PubChem BioAssay)
VACV Venus inh: qHTS for Stage-Specific Inhibitors of Vaccinia Orthopoxvirus: Venus Reporter Primary qHTS. Vaccinia virus Venus reporter expression, fluorescence. Potency, µM (titrated, usually from 36.5 µM), inactives show at the highest dose activity change, negative = inhibition, hits mostly inhibitors. 0.46% of 330,000 active. AID 720580, 2013; active means well fitted inhibition curve with a large enough effect; inconclusive means small, poorly fitted or top-dose-only effect; inactive means no such curve, though single readings can be large or run the other way; tested in A549 cells; further: nearly all actives have a fitted effect of over 30% in size; inactives centre near -10
Vaccinia mCherry: qHTS for Stage-Specific Inhibitors of Vaccinia Orthopoxvirus: mCherry Reporter Primary qHTS | 0.63% of 310,000 active | Vaccinia virus mCherry reporter infection, fluorescence; about a quarter of the inactives have no number | AID 720579, 2013 | Potency, µM (titrated, usually from 36.5 µM), inactives show top-dose activity change, negative = inhibition, actives largely listed as inhibitors; active = well fitted inhibition curve with a large enough effect; inconclusive = small, poorly fitted or top-dose-only effect; inactive = no such curve, though single readings can be large or run the other way; tested in A549 cells; further: nearly all actives have a fitted effect of over 35% in size; inactives centre near -10
Active calls of the source: *; i = inactive; ? = inconclusive; / = no result given; & = joins results of further samples; [ ] = dose if it differs, or a comment. On the % scale 0 is the no-effect control and ±100 the full control effect; potency means the concentration at half of the fitted maximal effect.

SMILES,Vaccinia mCherry,VACV Venus inh
COc1ccc(/C=N/N=C(\N)c2nonc2N)cc1OC,-6%,-8%
O=C(Nc1ccccc1)Nc1cccc2ccccc12,-3%,0%
S=C(NCc1ccco1)N/N=C/c1ccncc1,i,-1%
CCOC(=O)C1CCN(C(=O)C2CCCN(S(=O)(=O)c3ccc(OC)c(Cl)c3)C2)CC1 (configuration not stated),-15%,-17%
COc1ccc(N2CCN(S(=O)(=O)CCNS(=O)(=O)c3ccccc3)CC2)cc1,i,-9%
c1ccc(-c2n[nH]c3ccccc23)cc1,?,-13%
c1cnc(N2CCN(Cc3ccc4c(c3)OCO4)CC2)nc1,-17%&-25%,-14%&-14%
CCOc1nc2ccccc2cc1C=O,-11%,-7%
Cc1ccc(-c2noc(CSc3nnc(-c4ccc(Cl)cc4)n3C)n2)cc1,-19%,-2%
Cc1ccccc1Nc1n[nH]c(=S)s1,-2%,-6%
COc1ccc(CN2Cc3cnnn3-c3ccccc3C2C)cc1 (configuration not stated),?,-15%
CC(=O)c1c(C)[nH]c(C(=O)COC(=O)c2cccc(S(=O)(=O)N(C)c3ccccc3)c2)c1C,?,-25%
O=C(N/N=C/c1ccoc1)c1ccccc1Br,i,-8%
C/C(CCc1ccccc1)=N\NC(=O)CCc1ccccc1,-14%,-1%
Cc1ccc(S(=O)(=O)CC(=O)Nc2ncc([N+](=O)[O-])s2)cc1,i,-12%
CC(=O)NCCOc1ccc(C(=O)O)cc1,/,?
COc1ccc(NC(=S)N(CCN2CCCCC2)Cc2ccco2)cc1,-11%,-3%
COc1ccccc1C(=O)Nc1ccc(OCc2cc(=O)n3cc(C)sc3n2)cc1,1%,-2%
COc1ccc(CCNC(=O)Nc2nc(C(N)CCc3ccccc3)cs2)cc1OC (configuration not stated),-28%,-20%
CSc1nc(N)nc(SCC(=O)C(C)(C)C)c1C#N,/,-28%
CCCCCC(=O)NNC1=NCC(Cc2ccccc2)S1 (configuration not stated),1%,-1%
CCCC1C2CN(C(C)=O)CC=C2C(C#N)=C(N)C1(C#N)C#N (configuration not stated),i,-12%
COc1cc(-c2nn3c(-c4cccnc4)nnc3s2)cc(OC)c1OC,-8%,-17%
COc1ccc(-c2nc3ccccc3n2Cc2ccc(C)cc2)cc1,/,-19%
Cc1ccc(Nc2nnc(-c3ccc(C)c(S(=O)(=O)N4CCOCC4)c3)c3ccccc23)c(C)c1,-15%,-32%
Cc1ccc(N(C(=O)Nc2ccccc2)C2=NCCC2)cc1,i,-16%
CCCCc1nc(Cl)c(CO)n1Cc1ccc(-c2ccccc2-c2nnn[nH]2)cc1,i,-3%
COc1ccccc1CNC(=O)CCS(=O)(=O)c1ccc2c(c1)CC(C)N2C(=O)C1CC1 (configuration not stated),-13%&-23%,-4%&-14%
Cc1ccc(NC(=O)N[C@H](C(=O)O)C(C)C)c(C)c1,-12%,0%
O=C1CN=C(c2ccc(Cl)cc2)c2oc3ccccc3c2N1,-2%,-15%

An excerpt from above in order of length of the SMILES, lowest first.
SMILES,Vaccinia mCherry,VACV Venus inh
CCOc1nc2ccccc2cc1C=O,-11%,-7%
O=C(Nc1ccccc1)Nc1cccc2ccccc12,-3%,0%
C/C(CCc1ccccc1)=N\NC(=O)CCc1ccccc1,-14%,-1%

Following part.
SMILES,Vaccinia mCherry,VACV Venus inh
N#Cc1cc2c(nc1SCC(=O)Nc1ccc(OC(F)(F)F)cc1)C1CCN2CC1,-27%,-18%
O=C(O)CSCc1nc2ccccc2[nH]1,-14%,-5%
Cc1cc(C)cc(OCC(=O)OCC(=O)NCCC2=CCCCC2)c1,-3%,-5%
CCc1ccc(CN2CCC(Oc3ccc(C(=O)NCc4ccccn4)cc3)CC2)o1,-17%,-21%
Fc1cccc(Cc2c(-c3ccco3)nc3ccc(Br)cn23)c1,5%,2%
COc1ccc2c(c1)C(c1ccc(N(CCCl)CCCl)cc1)=NCC2,i,-1%
CC(=O)Nc1ccc(NC(=O)C2CCN(S(=O)(=O)c3cccc4nonc34)CC2)cc1,-15%,-11%
CCn1c(SCC(=O)O)nnc1-c1cccnc1,-9%,-2%
CC(C)c1cccc(C(C)C)c1OC(=O)[C@H]1OC(C(C)(C)C)=C[C@@H]1c1ccccc1,?,-22%
O=P(c1ccccc1)(c1ccccc1)C(O)c1cccs1 (configuration not stated),-7%,-3%

Taken from above:
CCn1c(SCC(=O)O)nnc1-c1cccnc1 in Vaccinia mCherry is listed with -9%
CC(=O)Nc1ccc(NC(=O)C2CCN(S(=O)(=O)c3cccc4nonc34)CC2)cc1 in VACV Venus inh is listed with -11%
O=P(c1ccccc1)(c1ccccc1)C(O)c1cccs1 (configuration not stated) in VACV Venus inh is listed with -3%
Cc1cc(C)cc(OCC(=O)OCC(=O)NCCC2=CCCCC2)c1 in VACV Venus inh is listed with -5%

Remaining list, next part:
SMILES,Vaccinia mCherry,VACV Venus inh
N#CCS(=O)(=O)c1ccccc1,i,-7%
CC(=O)C1=C(c2ccccc2)OC(N)=C(C#N)C1c1ccccc1C (configuration not stated),-24%,-2%
CCC(=O)N1CCc2cc(S(=O)(=O)NC(Cc3ccccc3)C(=O)NCc3ccccc3)ccc21 (configuration not stated),-3%,-10%
Cc1cncc(N2CCN(c3ccccn3)CC2)n1,15%,5%
Cc1cc(C)c(C#N)c(SCc2cc3c(cc2Cl)OCO3)n1,i,-6%
CCNC(=O)NC1(C(=O)Nc2ccc3c(c2)CCC3)CCCCC1,i,-6%
Cc1ccc(C)c(CN2CCSCC2)c1,i,-6%
CCn1c(-c2ccccc2F)nc2cc(NC(C)=O)cc(C(=O)N(C)Cc3ccccn3)c21,i,-24%
Cc1cc(C)cc(NC(=O)c2ccc(CNc3c(N4CCOCC4)c(=O)c3=O)cc2)c1,-10%,-5%
O=C(NCCCc1ccccc1)C1CCN(c2nnc(-n3cccc3)s2)CC1,-8%,-27%
CCOC(=O)c1cc(-c2ccccc2C)nn1Cc1cc(CC)no1,-7%,-13%
O=C(CC1SC(=O)N(c2ccccc2)C1=O)Nc1cccc2ccccc12 (configuration not stated),?,-8%
Cc1ccc([N+](=O)[O-])cc1NC(=O)CCSc1ccc(Cl)cc1,/,-20%
O=C(NCc1ccco1)c1ccc(COc2ccc(Cl)cc2)cc1,-9%,3%
CCN(CC)S(=O)(=O)c1ccc2c(c1)N(CC(=O)NCCCN1CCN(c3ccc(OC)cc3)CC1)C(=O)CO2,-1%,-1%
CCC1(CCC(C)C)SC(N)=NC1=O (configuration not stated),-14%,-5%
Oc1ccccc1/C=N/N1CCCCC1,-13%,-6%
COC(=O)N/N=C/C1=CCC2CC1C2(C)C (configuration not stated),-2%,-3%
CCCOP(=O)(c1ccc(N(C)C)cc1)C(Nc1ccccc1)c1ccc(C)cc1 (configuration not stated),?,?
COc1ccc(N/N=C2/CCCCC2=O)cc1,-15%,-6%
C=CCN1C(=O)/C(=C/c2ccc3c(c2)CCCN3CCC)C(=O)NC1=S,3%,19%
NC(=O)c1nnsc1-c1ccco1,-12%,-8%
CC(C)c1nc(CN2CCCCC2)cc(=O)[nH]1,-4%,-1%
O=c1c2c3c(sc2nc2n1N=C(c1cccs1)CS2)CCCC3,-20%[1.46 µM],-6%
COc1cc(C)ccc1S(=O)(=O)NC(=O)C1(C)CCN1C(=O)c1ccc(C2CCCCC2)cc1 (configuration not stated),37%[activator],-4%
Cc1noc(C)c1-c1nc(N2CCNCC2)c2ccccc2n1,4%,0%
CCN(CC)c1ccc(NC(=O)CSc2ccsc2[N+](=O)[O-])c(C)c1,-14%,-3%
CCC(=O)N1c2ccccc2CC1C(=O)NCCN1CCN(c2ccccc2F)CC1 (configuration not stated),-9%,-5%
NC(=S)NC1CCS(=O)(=O)C1 (configuration not stated),-5%,-7%
O=C(Cn1cnc2ccccc2c1=O)NC1CCCc2ccccc21 (configuration not stated),-5%,1%
COC(=O)c1ccc2[nH]c(C3(O)CCCCC3)c(C)c2c1,i,-11%
Cc1cccc(NC(=O)CN(C)S(=O)(=O)c2ccc3c(c2)CCC(=O)N3)c1C,-7%,2%
CC1=CN2C(=NC(=O)CC2(C)C(=O)N(CC(=O)NC2CCCC2)Cc2ccccc2)C=C1 (configuration not stated),1%,6%
CCNc1nc(NC(C)C)nc(Nn2cnnc2)n1,0%,-6%
CC(C)CC(=O)Nc1ccc(Nc2ccccc2)cc1,-5%,-18%
O=C(Nc1cccc(C(F)(F)F)c1)n1cc(-c2ccccn2)c(N2CCOCC2)n1,i,-10%
CCOc1ccccc1N(C)S(=O)(=O)c1ccc2c(c1)N(C(C)=O)CCO2,-18%,-6%
Cc1cc(C)c(NC(=O)Cn2c(=O)n(Cc3ccc4c(c3)OCO4)c(=O)c3ccccc32)c(C)c1,-8%,-11%
Cc1cc(NC(=O)CN2C(=O)CCSc3ccccc32)no1,-5%,-12%
O=C(O)CSCC(=O)Nc1ccc(C(F)(F)F)cc1,-2%,-2%
CN(C)C(=O)N1CCCC(C(=O)NCc2ccc(F)cc2Cl)C1 (configuration not stated),-6%,1%
Cc1cc2c(cc1S(=O)(=O)N1CCCCC1)OCC(=O)N2,-22%&-11%,-10%&-8%
CC(OC(=O)c1cc(S(=O)(=O)N2CCOCC2)ccc1F)C(=O)NCC1CCCCC1 (configuration not stated),-7%,1%
Cn1ccnc1SCC(=O)Nc1ccccc1,i,-17%
Cc1ccc(C(=O)c2ncc[nH]2)cc1,i,-8%
CCN1CCN(S(=O)(=O)Cc2ccccc2)CC1,-18%,-14%
COc1ccc(-c2ccc3oc(-c4ccc(OC)cc4)c(-c4ccc(OC)cc4)c3c2)cc1,i,-4%
COc1ccc(NC(=O)CC2Oc3ccccc3NC2=O)c(OC)c1 (configuration not stated),-5%,-9%
COc1cc2c(cc1OC)-c1c(OC)c(OC)cc3ccnc(c13)C2=O,?,?
O=C(NC(=S)N1CCN(c2ccccn2)CC1)c1ccccc1,-16%,-8%

Following part.
SMILES,Vaccinia mCherry,VACV Venus inh
CCCc1cc(=O)[nH]c(SCC(=O)N2CCN(c3ccccc3)CC2)n1,-7%,-11%&-6%
COc1c(OC)c2occc2c2oc(=O)ccc12,-10%,-6%
CCc1ccc2oc(-c3ccc(C)c(NC(=O)COc4ccccc4Cl)c3)nc2c1,-11%,-11%
COc1ccc(N2CCN(C(=O)C3Cc4ccccc4N3C(C)=O)CC2)cc1 (configuration not stated),-5%,-4%
COC(=O)CCC(NS(=O)(=O)OCC(Cl)(Cl)Cl)c1ccccc1 (configuration not stated),-6%,-9%
Cc1cc(C)n(CC(=O)N/N=C/c2ccccn2)n1,2%,-4%
COc1cccc(NC(=O)CN(C)C(=O)c2ccccc2OCC(=O)Nc2cccc(C(F)(F)F)c2)c1,-9%,-22%
CC(=O)N1Cc2cnnn2-c2ccccc2C1C#N (configuration not stated),-11%,5%
CCOC(=O)[C@H]1[C@H]2COc3ccc(Br)cc3[C@H]2N2C(=O)CNC(=O)[C@@]12C,i,-22%
Cc1ccc(CNC(=O)C2CCN(S(=O)(=O)c3ccc4c(c3)CC(C)N4C(=O)C3CC3)CC2)cc1 (configuration not stated),-12%[7.34 µM],-10%[7.34 µM]
CCN(CC)c1ccc(C2NC(=O)NC(C)=C2C(=O)Nc2ccccc2)cc1 (configuration not stated),-5%[1.46 µM],-4%
O=C(c1cccc(Cl)c1)C1CCCN(Cc2cccc3cnccc23)C1 (configuration not stated),-11%,-7%
CCCCOc1cccc(C(=O)Nc2cccc(-c3nc4ncccc4o3)c2C)c1,-27%,-22%
COc1ccc(C(=O)N2CC(=O)Nc3ccc(Br)cc3C2c2ccc(F)cc2)cc1OC (configuration not stated),-6%,-16%
CCn1c(=O)c(=O)n(CC)c2cc(S(=O)(=O)Nc3ccc(C)cc3)ccc21,-20%,-17%
Cc1ccc(-c2nc3nc(C)cc(C)n3c2Nc2ccc3c(c2)OCCO3)cc1,-10%,-9%
Cn1c(=O)c2c(nc(Br)n2CC(=O)c2cccs2)n(C)c1=O,/,-28%
COc1ccc(Cn2c(CNC(=O)c3ccc(N(C)C)cc3)nc3cccnc32)cc1,-16%,-17%
O=C(CSc1nc2cc(Cl)ccc2s1)NCC1CCCO1 (configuration not stated),-19%,-16%
CC1(C)CC(=O)c2c(O)cc(OCC(=O)Nc3ccc(CCO)cc3)cc2O1,-12%,-2%
Nc1ncnc2c(C3OC(CO)C(O)C3O)scc12 (configuration not stated),?,0.35µM*
CCn1c(CN2CCC(C)CC2)nc2cc(NC(=O)COc3ccc([N+](=O)[O-])cc3)ccc21,i,?
Cc1ccc(C(=O)Nc2nc3nc(-c4ccccc4)cc(=O)n3[nH]2)cc1,-13%,-15%&-4%
CC(C)c1cc(-c2cc(-c3ccc(Cl)cc3)on2)nc(NC2CCCC2)n1,-19%,-17%
CC(C)Cc1ccc(/C=C/C(=O)N2CCOCC2)cc1,-9%,-12%
Nc1cc(N)nc(SCc2cc([N+](=O)[O-])cc3c2OCOC3)n1,-21%,-3%
N#Cc1nc(-c2ccccc2F)oc1NCc1cccc2c1OCO2,?,0%

No enrichment for hits, and some 0.82% of all compounds hit somewhere here.
